High-throughput results deposited in PubChem by several laboratories.
Mtb hypoxia rep: PubChem AID 1159583 | 300,000 compounds, 0.1% hits | fluorescence inhibition, % (no concentration beside the values) | M. tuberculosis hypoxia-regulated fluorescent reporter, fluorescence;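 active means 35 to 45% if threefold the growth effect, above 45% if 1.5-fold the growth effect; inactive means the rest, general growth blockers included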;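 further: wells of about 50 µL received 100 nL stock; 0% = vehicle wells and 100% = reference inhibitor wells; whole bacteria with a GFP reporter of the hypoxia response; strong numbers were not always called active; many hits fall short of the cut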
Sa ugtP lethal: growth inhibition of ugtP-null S. aureus, primary screen, RN4220 ugtP deletion, OD600 | 16 h; some inactives read as strong as hits | growth inhibition, % (test concentration not listed) | 330,000 compounds, 0.54% hits | AID 1259309, 2017;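 active means z-score under -3 and OD600 up to 0.15 on both plates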;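 further: plate controls were untreated wells for no effect and antibiotic for full effect; wells of about 80 µL received 100 nL stock; the first replicate is given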
BJeLR viability: MLPCN primary cell-based screen for lethality selective to Ras in HRASV12 cells; BJeLR (HRASV12) viability, CellTiter-Glo ATP luminescence, 48 h; reference of the scale not given here; inhibition, % (test concentration not listed); 300,000 compounds, 0.17% hits; AID 1554, 2009;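 active means replicate mean above 50%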;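 further: 50 nL library stock added to about 25 µL; numbers are from one replicate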
Sa RN4220 lethal: growth inhibition of S. aureus RN4220, primary screen, OD600 | AID 1259311, 2017 | 330,000 compounds, 0.33% hits | 16 h | inhibition, % (no concentration beside the values);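 active means z-score of -3 or lower and OD600 up to 0.18 on both plates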;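 further: plate controls were untreated cells for no effect and reference antibiotic for full effect; stock transfer was 100 nL into about 80 µL; one replicate is shown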
PrP UTR inh: inhibition of PrP 5' UTR reporter expression. inhibition, % (test concentration not listed). 340,000 compounds, 0.35% hits. AID 488862, 2010. cell-based PrP 5' UTR mRNA reporter, plate reader;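 active means every replicate at 50% or more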;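 further: 0 = median of the neutral control wells; tested in H4 reporter cells; numbers are from one replicate; inactives centre near -14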
Bead autofluor: flagged as autofluorescent in microsphere protease counterscreen. compound autofluorescence counterscreen, microsphere flow cytometry; stronger effect = higher value. fluorescence intensity (concentration not given with the values). 360,000 compounds, 3.1% hits. AID 624483;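 active means at least 3 SD above the mean of all compounds, about 16000 in these data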;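 further: 100 nL of 1 mM stock went into each well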
Mtb hypoxia rep growth: also measured in Mtb hypoxia rep; calls as there; growth inhibition, %; measured here: M. tuberculosis growth (absorbance);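 0% = vehicle and 100% = reference antibiotic; read after six days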
* marks the source's active call; other numbers are inactive results; . = no result given.

entry	SMILES	Mtb hypoxia rep	Mtb hypoxia rep growth	Sa ugtP lethal	BJeLR viability
1	CSCCC(NC(=O)c1cccc([N+](=O)[O-])c1)c1nc2ccccc2[nH]1 (configuration not stated)	7	10	17	12
2	O=C(CCNS(=O)(=O)c1ccccc1C(F)(F)F)NNC(=O)c1csc(N2CCOCC2)n1	5	7	6	5
3	CCC1Sc2ccc(S(=O)(=O)CCC(=O)Nc3ccc(NC(C)=O)cc3)cc2NC1=O (configuration not stated)	-4	4	4	12
4	O=C(CNC(=O)c1ccncc1)NN=Cc1cc(Br)ccc1O	-7	-12	0	.
5	c1ccc(CCNc2ncnc3ccccc23)cc1	5	2	-3	25
6	COc1ccc(N2CCN(C(=O)CSc3nnc4c5cc(C)ccc5n(C)c4n3)CC2)cc1	6	9	-3	-2
7	COc1ccc(C(=O)CSc2nnc3ccc(-c4ccccn4)nn23)cc1	7	0	2	4
8	O=C(O)c1cc2cc(F)ccc2[nH]1	.	.	.	21

entry	Sa RN4220 lethal	PrP UTR inh	Bead autofluor
1	12	-14	10255
2	1.0	-19	4980
3	4.8	-18	5203
4	-3.5	.	.
5	3.9	-67	2537
6	2.0	-10	12340
7	3.6	-31	5853
8	.	-36	6086

(list continues)
entry	SMILES	Mtb hypoxia rep	Mtb hypoxia rep growth	Sa ugtP lethal	BJeLR viability
9	O=C(/C=C1\SC(=O)N(CC(=O)Nc2ccc(F)cc2)C1=O)Nc1ccc(Cl)cc1	-5	-5	3	-5
10	COc1cc(C=NNC(=O)CNC(=O)c2ccncc2)ccc1OC(C)=O	12	12	10	.
11	CC(C)(C)c1nnc(N/N=C/c2cc(Br)ccc2O)n(N)c1=O	.	.	.	85*
12	O=C(CCCOc1ccc(Cl)cc1Cl)N1CCN(c2ccccn2)CC1	7	-1	-8	0
13	Cc1ccc(-n2nc3c(c2NC(=O)C(C)(C)C)CSC3)c(C)c1	14	3	13	2
14	O=C(N/N=C/c1c[nH]c2ccccc12)c1cc(-c2cccc3ccccc23)n[nH]1	.	.	.	2
15	O=C(OCC(=O)c1c[nH]c2ccccc12)c1ccc(Br)o1	6	5	1	-18
16	N#Cc1c(N)n(CCc2ccc(F)cc2)c2nc3ccccc3nc12	.	.	-17	-2

entry	Sa RN4220 lethal	PrP UTR inh	Bead autofluor
9	4.3	-4	2351
10	4.3	.	.
11	.	39	8250
12	20	-4	16837*
13	11	-31	6753
14	.	-29	2198
15	5.4	-46	10364
16	-1.7	-15	3240

The results go on:
entry	SMILES	Mtb hypoxia rep	Mtb hypoxia rep growth	Sa ugtP lethal	BJeLR viability
17	COc1ccc(C=NNC(=O)CN2CCSCC2)cc1C	3	2	-3	.
18	C/C(C=Nn1c(-c2ccccn2)n[nH]c1=S)=C\c1ccccc1	11	12	-5	.
19	COc1ccc(C2CC(c3ccc(Cl)cc3)n3nc(N)nc3N2)cc1 (configuration not stated)	.	.	3	-9
20	CSc1ccccc1NC(=O)CSCc1nc2sc(C)c(C)c2c(=O)[nH]1	13	1	9	7
21	CCc1ccc(NC(=O)C(NS(=O)(=O)c2cccc3nsnc23)c2ccccc2)cc1 (configuration not stated)	.	.	.	-6
22	ClC1(Cl)CC1Cn1cnc2ccccc21 (configuration not stated)	-1	8	3	3
23	CCN(Cc1nc2ccccc2c(=O)[nH]1)C(=O)c1cc2c(s1)CCCCC2	-5	8	-9	.
24	CC(C)CC(CO)N1CCN(C(=O)c2ccccc2)CCC1=O (configuration not stated)	8	6	1	-4

entry	Sa RN4220 lethal	PrP UTR inh	Bead autofluor
17	2.7	.	.
18	8.0	.	.
19	1.2	-15	5311
20	8.2	-23	6120
21	.	-21	11295
22	5.7	13	4242
23	2.4	-17	2940
24	3.2	-16	3396

Going on with the list.
entry	SMILES	Mtb hypoxia rep	Mtb hypoxia rep growth	Sa ugtP lethal	BJeLR viability
25	CCCCOC(=O)c1ccc(NC(=O)C(=O)NCC2CCCO2)cc1 (configuration not stated)	7	7	7	1
26	Cc1n[nH]c(=O)c2c(NC(=O)CSc3nc4ccccc4c(=O)n3CCCO)oc(C)c12	.	.	.	5
27	Oc1ccccc1CNc1cnc2ccccc2c1	-8	0	-21	4
28	Cc1onc(-c2ccccc2)c1-c1csc(NN=Cc2ccccc2Cl)n1	4	6	13	.
29	CN1/C(=C\C=NO)C(C)(C)c2ccccc21	14	7	-5	.
30	CCc1nnc(NC(=O)CCc2c[nH]c3ccccc23)s1	7	-6	1	19
31	Cc1ccc(S(=O)(=O)N2CCC(C(=O)NC3CC(C)(C)NC(C)(C)C3)CC2)cc1C	-2	3	2	-7
32	COc1ccccc1-c1nc(C#N)c(N2CCN(c3cccc(Cl)c3)CC2)o1	3	1	-28	2

entry	Sa RN4220 lethal	PrP UTR inh	Bead autofluor
25	4.0	-11	8260
26	.	-10	5392
27	1.2	-12	8173
28	2.2	.	.
29	9.3	.	.
30	3.3	-20	4872
31	4.4	5	5158
32	4.3	-39	25154*

Carrying on.
entry	SMILES	Mtb hypoxia rep	Mtb hypoxia rep growth	Sa ugtP lethal	BJeLR viability
33	O=C1CCC/C(=N\NC(=O)c2ccc(COc3ccccc3-c3ccccc3)cc2)C1	.	.	.	-8
34	COc1ccc(CCNC(=O)CCC(=O)Nc2ccc3nc(N4CCN(C)CC4)cc(C)c3c2)cc1OC	-16	4	-2	-3
35	CC12CCC(C(=O)N(NC(=O)c3ccc(O)cc3)C1=O)C2(C)C (configuration not stated)	4	2	15	-12
36	COc1cccc(-c2nc(NC(C)C)c3ccccc3n2)c1O	3	4	-26	-2
37	CCC(CC)C(=O)N1CCN(Cc2nc3ccccc3c(=O)[nH]2)CC1	-7	0	5	0
38	COc1cc(NC(=O)C2CC2)c(OC)cc1NC(=O)CCC(=O)NC1CCN(Cc2ccccc2)CC1	3	-4	0	0
39	CCOCCCNC(=O)C1CCC(CNS(=O)(=O)c2ccc(Cl)cc2)CC1 (configuration not stated)	-1	9	-6	-1
40	N#Cc1nccnc1N1CCN(C(=O)Nc2ccccc2)CC1	-4	13	0	1

entry	Sa RN4220 lethal	PrP UTR inh	Bead autofluor
33	.	-28	5780
34	3.5	-18	3954
35	7.2	-8	9095
36	-20	-20	24838*
37	3.9	-27	2735
38	0.7	-9	1996
39	-3.5	-8	11348
40	-0.6	-22	3274

Other compounds.
entry	SMILES	Mtb hypoxia rep	Mtb hypoxia rep growth	Sa ugtP lethal	BJeLR viability
41	CCCN1C(=O)/C(=C/c2ccc(OCc3ccc(C(=O)O)cc3)c(OC)c2)NC1=S	-12	-9	-11	0
42	COc1ccc(-c2cn(CCO)c(-c3ccc(Cl)nc3)n2)cc1	6	7	-4	.
43	COc1ccc(OC)c(NCc2nnc(-c3ccccc3)o2)c1	6	6	2	-5
44	CC(=O)N1c2ccc3ccccc3c2C(C)CC12CCCCC2 (configuration not stated)	15	17	15	-4
45	Cc1cccc(NC(=O)NCC(c2ccc(F)cc2)N2CCN(C)CC2)c1 (configuration not stated)	9	5	-1	8
46	CSc1ccc(CN2CCc3c([nH]c4ccccc34)C2)cc1	9	8	5	-2
47	CS(=O)(=O)c1ccc(C(=O)Nc2ccccc2N2CCOCC2)c(Cl)c1	9	8	11	0
48	CCC(C(=O)OCC(=O)NCc1ccc2c(c1)OCO2)c1ccccc1 (configuration not stated)	11	6	9	.

entry	Sa RN4220 lethal	PrP UTR inh	Bead autofluor
41	17	.	.
42	2.5	-18	3991
43	5.0	-23	3904
44	-17	-7	2424
45	3.7	-11	5448
46	-5.0	-30	4041
47	6.1	-12	4781
48	5.4	-19	3406

The listing continues.
entry	SMILES	Mtb hypoxia rep	Mtb hypoxia rep growth	Sa ugtP lethal	BJeLR viability
49	CC1CCc2nc(/C(C#N)=C/c3ccncc3)sc2C1 (configuration not stated)	.	.	.	3
50	O=C(CN1CCN(c2ccccc2)CC1)Nc1cccc([N+](=O)[O-])c1	5	-7	16	-3
51	COc1ccc(/C=C/C(O)=C2/C(=O)N(C)C3(C)CC2c2ccccc2O3)cc1 (configuration not stated)	1	4	13	-2
52	COc1ccccc1NS(=O)(=O)c1cc(NC(=O)CCc2nc3ccccc3c(=O)[nH]2)ccc1C	-7	6	-3	4
53	Cc1cc(C)nc(CCNC(=O)C2CCC(=O)N(Cc3ccccc3F)C2)n1 (configuration not stated)	5	-4	6	6
54	CSc1ncccc1C(=O)OCC(=O)NC(C)CCc1ccccc1 (configuration not stated)	6	3	3	.
55	COC(=O)[C@H](C)NC(=O)NCc1ccccc1	9	-1	6	-1
56	Cc1[nH]nc(SCC(=O)NCc2ccc(Cl)cc2)c1[N+](=O)[O-]	3	11	-13	18

entry	Sa RN4220 lethal	PrP UTR inh	Bead autofluor
49	.	-103	2564
50	7.3	-2	1973
51	1.2	-5	3710
52	5.1	-25	5271
53	2.2	-25	4717
54	-2.5	-19	3907
55	2.1	-22	4116
56	4.6	-23	2353

Carrying on:
entry	SMILES	Mtb hypoxia rep	Mtb hypoxia rep growth	Sa ugtP lethal	BJeLR viability
57	CC(C)CCNC(=O)CN(Cc1ccco1)C(=O)c1snc(C(N)=O)c1N	3	-2	3	-5
58	CCNS(=O)(=O)c1ccc(CCC(=O)N2CCN(C(=O)OCC)CC2)cc1	12	6	3	10
59	COc1ccc(CNC(=O)/C=C/c2cc([N+](=O)[O-])ccc2OC(F)F)cc1OC	0	2	0	8
60	CCOC1OC(C(=O)NCc2nc3ccccc3[nH]2)=CC(C2CC2)C1CCCO (configuration not stated)	-9	5	-1	.
61	CC(C)c1ccc(C2(O)C(=O)Nc3cc(Br)ccc32)c(O)c1 (configuration not stated)	-6	4	7	-2
62	COc1ccccc1NCC(O)COc1ccc(C(C)(C)C)cc1 (configuration not stated)	9	4	24	-9
63	c1ccc(COc2ccccc2CNC2CCCC2)cc1	.	.	.	10
64	CC(C)CN1C(=O)/C(=C/c2ccco2)NC1=S	8	7	23	15

entry	Sa RN4220 lethal	PrP UTR inh	Bead autofluor
57	6.3	-12	3518
58	3.9	-35	3196
59	3.2	-5	18771*
60	1.6	.	.
61	-1.4	-14	4040
62	3.5	-13	3925
63	.	-17	4857
64	1.8	-14	2237

Next section
entry	SMILES	Mtb hypoxia rep	Mtb hypoxia rep growth	Sa ugtP lethal	BJeLR viability
65	COc1cccc(CC(=O)N(C)C2CCCN(Cc3ccccc3F)C2)c1 (configuration not stated)	9	2	11	-5
66	O=C(CSc1ncn[nH]1)Nc1nnc(-c2ccccc2)s1	8	7	4	-2
67	CCOc1cc(NC(=S)N2CCC(C(N)=O)CC2)c(C(=O)OC)cc1OCC	5	-2	1	-7
68	COC(=O)CC1Oc2ccccc2N(Cc2ccccc2)C1=O (configuration not stated)	.	.	3	1

entry	Sa RN4220 lethal	PrP UTR inh	Bead autofluor
65	2.6	-21	3540
66	3.0	-21	5669
67	5.6	-14	3347
68	-2.2	-22	6272

Of the compounds above, these contain a Cl atom:
entry	SMILES	Mtb hypoxia rep	Mtb hypoxia rep growth	Sa ugtP lethal	BJeLR viability
9	O=C(/C=C1\SC(=O)N(CC(=O)Nc2ccc(F)cc2)C1=O)Nc1ccc(Cl)cc1	-5	-5	3	-5
12	O=C(CCCOc1ccc(Cl)cc1Cl)N1CCN(c2ccccn2)CC1	7	-1	-8	0
19	COc1ccc(C2CC(c3ccc(Cl)cc3)n3nc(N)nc3N2)cc1 (configuration not stated)	.	.	3	-9
22	ClC1(Cl)CC1Cn1cnc2ccccc21 (configuration not stated)	-1	8	3	3
28	Cc1onc(-c2ccccc2)c1-c1csc(NN=Cc2ccccc2Cl)n1	4	6	13	.
32	COc1ccccc1-c1nc(C#N)c(N2CCN(c3cccc(Cl)c3)CC2)o1	3	1	-28	2
39	CCOCCCNC(=O)C1CCC(CNS(=O)(=O)c2ccc(Cl)cc2)CC1 (configuration not stated)	-1	9	-6	-1
42	COc1ccc(-c2cn(CCO)c(-c3ccc(Cl)nc3)n2)cc1	6	7	-4	.
47	CS(=O)(=O)c1ccc(C(=O)Nc2ccccc2N2CCOCC2)c(Cl)c1	9	8	11	0
56	Cc1[nH]nc(SCC(=O)NCc2ccc(Cl)cc2)c1[N+](=O)[O-]	3	11	-13	18

entry	Sa RN4220 lethal	PrP UTR inh	Bead autofluor
9	4.3	-4	2351
12	20	-4	16837*
19	1.2	-15	5311
22	5.7	13	4242
28	2.2	.	.
32	4.3	-39	25154*
39	-3.5	-8	11348
42	2.5	-18	3991
47	6.1	-12	4781
56	4.6	-23	2353

An unsorted share of the library (roughly 3.9% active in at least one column).
